# HSD17B inhib: qHTS Assay for Inhibitors of HSD17B4, hydroxysteroid (17-beta) dehydrogenase 4. 3-hydroxyacyl-CoA dehydrogenase type-2 (Homo sapiens), Q99714. recombinant HSD17B10, NADH fluorescence kinetic; many of its hits are not listed in these tables. Potency, µM (highest dose often 57.1 µM), for the others: at the highest dose activity change, negative = inhibition, hits mostly inhibitors. 75,000 compounds, 7.6% hits. AID 893, 2007; active = well fitted inhibition curve with a large enough effect; inconclusive = small, poorly fitted or top-dose-only effect; inactive = no such curve, though single readings can be large or run the other way;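 note: the protocol describes HADH2 (HSD17B10) and not the HSD17B4 of the title; nearly all actives have a fitted effect of over 70% in size; most hits overshoot -100% by far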
#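 20 nM HADH2, pH 9.0 Tris/Tween; cpd preinc 15 min RT; start w/ 1 mM NAD+ + 90 uM b-hydroxybutyryl-CoA; kinetic fluor ex360/em450 q30s x 4 min; delta last-first.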
# * = called active by the depositor; ? = inconclusive; & = joins results of further samples; [ ] = another dose, or the depositor's remark. % is set by controls: 0 for no effect and ±100 for the full control effect; potency is the fitted concentration of half-maximal effect.
SMILES,HSD17B inhib
COc1ccc(C(CC(=O)N2CCC3(CC2)OCCO3)NS(=O)(=O)c2ccc(OC)cc2)cc1 (centres undefined),5%
CC(C)=CC1C(C(=O)OCc2cccc(Oc3ccccc3)c2)C1(C)C (centres undefined),-3%
O=C(c1cc(Br)ccc1Cl)N1CCC2(CC1)OCCO2,9%
FC(F)(F)c1ccc2c(c1)ncn2C1CCN(Cc2nnnn2C2CCCCC2)CC1,-1%
O=C(O)COc1cc(Cl)c(Cl)cc1Cl,2%
O=P(O)(O)C#Cc1ccccc1,5%
CN(C)c1ccc2c(c1)N=C(c1ccco1)OP2(=S)N1CCOCC1 (centres undefined),?
Cc1cc(Cc2cc(C)c(N)cc2N)c(N)cc1N,?
CC(=NCc1ccc(F)cc1)c1c(O)n(C)c(=O)n(C)c1=O,5%
COc1ccc2c(c1)CC1(CN2C)C(=O)NC(=O)N(c2ccc(F)cc2)C1=O (centres undefined),-16%
CO[C@@H]1CC=C2CCN3CCC4=C(CC(=O)OC4)[C@]23C1,3%
Cc1ccc(Cn2nnnc2CN2CCC(n3nnc4ccccc43)CC2)cc1,2%
C[N+](C)(C)CC#CCN1CCCC1=O,-8%&4%
OCCNc1c2c(nc3ccccc13)CCCC2,12%
Clc1nc(Cl)nc(Cl)n1,-15%
CC(=O)Nc1ccc(S(=O)(=O)NC(CC(=O)N2CCC3(CC2)OCCO3)C(C)C)cc1 (centres undefined),6%
Cc1cc(-c2cc(C)c(N)c(C)c2)cc(C)c1N,-1%
CCC(=NCCN1CCOCC1)c1c(O)n(-c2ccccc2C)c(=O)[nH]c1=O,-16%
CN1[C@@H]2CCC[C@H]1CC(=O)C2,5%[25.6 µM]
COc1cc(Br)cc(CN2CCN(C)CC2)c1O,-7%
Cc1c(C(=O)c2ccc3ccccc3c2)c2cccc3c2n1[C@H](CN1CCOCC1)CO3,-7%
O=C(O)COc1ccc(Cl)cc1Cl,-6%&1%
COCC(=O)N1CCC2(CCCN(Cc3ccncc3)C2)CC1,8%
CCC[N+](=O)[O-],-2%
CC1/C=C/C=C/CC/C=C/C=C/C=C/C=C/C(OC2OC(C)C(O)C(N)C2O)CC2O[C@](O)(CC(O)C(O)CCC(O)CC(O)CC(O)CC(=O)OC(C)C(C)C1O)CC(O)C2C(=O)O (some centres undefined),10%
Cc1cccc(N2CCc3c2nc2ccccc2c3N)c1,32µM*
CC(=O)OC1(c2ccccc2)CCN(C)C2CCCCC21 (centres undefined),3%
CCC(=NCC1CCCO1)c1c(O)n(-c2ccccc2)c(=O)[nH]c1=O (centres undefined),2%
CCN1C[C@@]2(OC(=O)c3ccccc3NC(C)=O)CCC(OC)[C@@]34C5CC6C(OC)C[C@@](O)(C(CC23)[C@@H]14)C5(O)C6OC (some centres undefined),1%
CC(=O)OCC(=O)[C@@H]1CC[C@H]2[C@H]3CC[C@H]4C[C@@H](O)CC[C@]4(C)[C@@H]3C(=O)C[C@@]12C,-3%[25.6 µM]
COc1ccc(CCn2c(O)c(C=NCCCN(C)C)c(=O)[nH]c2=O)cc1OC,2%
CCCCCC[N+](=O)[O-],-6%
O=C1C2CCN(CC2)C1Cc1ccc(OCCOc2ccccc2)cc1 (centres undefined),-3%
COc1ccc(CC2NCC(O)C2OC(C)=O)cc1 (centres undefined),-2%
NCCc1c[nH]c2ccc(O)cc12,10%
CC1CC2(O)c3nonc3CCC2N1O (centres undefined),10%
COc1ccc(-n2c(=O)[nH]c3ccccc3c2=O)c(OC)c1,?
O=CN1CC2CC(C1)c1cccc(=O)n1C2 (centres undefined),30%[activator]
COc1ccc2c(c1)c(C(=O)CN1CCN(C)CC1)c(C)n2Cc1ccccc1,2%
Cc1ccc2c(c1)C1CN(C)CCC1N2C(=O)c1ccco1 (centres undefined),0%
CNC1[C@@H](O)C(OC2C(N)C[C@H](N)[C@@H](O[C@@H]3OC(C(C)O)C(O)C(O)C3N)C2O)OC[C@]1(C)O (some centres undefined),5%
CCCCn1c(O)c(C=NC2CCCCC2N)c(=O)[nH]c1=O (centres undefined),-1%
c1ccc2c(c1)OC[C@@H](C1=NCCN1)O2,0%
COC(=O)C1=CCCN(C)C1,7%
CC(C)(c1ccc(OC[C@@H]2CO2)cc1)c1ccc(OC[C@H]2CO2)cc1,13%
CCN(CC)C(=O)N[C@H]1C[C@H]2c3cccc4[nH]cc(c34)C[C@@H]2N(C)C1,?
COc1cc2ccc(=O)oc2c2ccoc12,6.3µM*
CNC[C@H](O)c1ccc(O)c(OC)c1,0%[25.6 µM]
O=C(O)C[O][Sb][O]CC(=O)O,-8%[11.4 µM]
CN(C)[C@@H]1C(=O)C(C(N)=O)=C(O)[C@]2(O)C(=O)C3=C(O)c4c(O)cccc4[C@](C)(O)[C@H]3C[C@@H]12,2µM*
O=C(Nc1ccccc1OC(=O)N1CCOCC1)N1CCOCC1,-2%
CCN1CCN(Cc2nnnn2C(C)(C)C)CC1,2%
OC[P+](CO)(CO)CO,0%
C[C@H](Br)CN(C[C@H](C)Br)c1ccc2c(c1)Cc1ccccc1-2,4µM*
CCCC(C)C1(CC)C(=O)N=C(S)NC1=O (centres undefined),4%
CC(C)OC(=O)C1C(=O)NC2(C)CC1c1ccccc1O2 (centres undefined),-2%
CCN1CCN(Cc2ccccc2C)CC1,0%
O=C(CN1C(=O)CN=C(c2ccccc2Cl)c2cc(Cl)ccc21)NCc1ccco1,-5%
C[N+]12CN3CN(CN(C3)C1)C2,-22%
CC(C)[C@]12CC(=O)[C@H](C)[C@H]1C2,7%

# Next section.
SMILES,HSD17B inhib
C[C@@H](O)CN(CCN(C[C@@H](C)O)C[C@@H](C)O)C[C@@H](C)O.O=[N+]([O-])O.[Cu],9%[11.4 µM]
CCCCn1c(O)c(C(C)=NCc2ccc(F)cc2)c(=O)[nH]c1=O,0%
O=c1c2ccccc2nc(-c2ccco2)n1-c1ccncc1,-25%
COCc1cc(C)c(C#N)c(=S)[nH]1,32µM*
C=C(C)CN1CC[C@@]23c4c5ccc(O)c4O[C@H]2c2[nH]c4ccccc4c2C[C@]3(O)[C@@H]1C5,-4%
CC(C)Cn1cc(C(=O)N2CCC3(CC2)OCCO3)c2c3ccccc3n(C)c2c1=O,20µM*
CC1C(=O)OC2C1CC[C@@]1(C)C=CC(=O)[C@@]3(C)O[C@@]213 (some centres undefined),0%
CS(=O)(=O)N1CCC2(CC1)CN(Cc1ccncc1)C2,0%
C=C(C)CCl,?
CNP1(NC)=Nc2nn(-c3ccccc3)c(N)c2C(c2ccccc2)=N1,1%
CCOC(=O)C1SC2(C(F)(F)C(F)F)CC1(O)c1c(c(OC)c3occc3c1OC)O2 (centres undefined),-1%
CCCC(=O)Cl,-3%
COC(=O)c1cc(COc2cc(C)cc3oc(=O)c4c(c23)CCC4)c(C)o1,13µM*
CC(C)(C)OO,3%&-4%
COC(C)(C)C,4%
CN1CC[C@@]2(C)c3cc(O)ccc3N(C)[C@@H]12,-24%
COc1ccc(NC(=O)N2CC3(CCN(C(=O)Oc4ccccc4)CC3)C2)cc1,-14%
C=CCn1c(O)c(C(CC)=Nc2ccc(N(CC)CC)cc2)c(=O)[nH]c1=O,-5%
N#CC1=C(N)Oc2c(c(=O)oc3ccccc23)C1c1cccnc1 (centres undefined),1%
Nc1ccccc1C(=O)O,32µM*

# A portion from the list above, for reference:
SMILES,HSD17B inhib
CN1CC[C@@]2(C)c3cc(O)ccc3N(C)[C@@H]12,-24%
COc1ccc(NC(=O)N2CC3(CCN(C(=O)Oc4ccccc4)CC3)C2)cc1,-14%
C=CCn1c(O)c(C(CC)=Nc2ccc(N(CC)CC)cc2)c(=O)[nH]c1=O,-5%
N#CC1=C(N)Oc2c(c(=O)oc3ccccc23)C1c1cccnc1 (centres undefined),1%
Nc1ccccc1C(=O)O,32µM*

# Remaining list, next part
SMILES,HSD17B inhib
Nc1ccc(Br)cc1,-11%
ClCCOCCCl,2%
CCCC/C=C/[C@@H](NP(=O)(c1ccccc1)c1ccccc1)c1ccccc1OC,7%
CC(=O)C1C(=O)NC23CCCCC2C1c1ccccc1O3 (centres undefined),4%
Cc1ccc(-c2cn3c(=S)[nH]nc3s2)cc1,?
Nc1ccc(Sc2ccc(N)cc2)cc1,-3%
Cc1ccccc1-n1c(O)c(C=Nc2ccc(N(C)C)cc2)c(=O)[nH]c1=O,-11%
CCCCn1c(O)c(C(C)=NCCc2ccccc2)c(=O)[nH]c1=O,-14%
COP(N)(=O)SC (centres undefined),0%
CNC(=O)Oc1ccccc1OC(C)C,4%
CCS(=O)(=O)N1CCC(C(=O)N2CCC3(CC2)OCCO3)CC1,7%
O=C(c1cc2c(s1)-c1ccccc1OC2)N1CCC2(CC1)OCCO2,32µM*
OC(c1ccccc1)(c1ccccc1)C1CCNCC1,-2%[25.6 µM]
CN1C(=O)c2ccccc2Sc2ccc(C(=O)N3CCC4(CC3)OCCO4)cc21,11%
Cc1cccc(C(=O)O)c1O,25µM*
O=C(NCc1ccccn1)c1ccccc1Cl,6%
O=C(CNS(=O)(=O)c1cccs1)N1CCC2(CC1)OCCO2,12%
COc1ccc(CC[n+]2cc(/N=C(\C)[O-])on2)cc1OC,12%
O=C(c1ccc2nc(-c3ccco3)c(-c3ccco3)nc2c1)N1CCC2(CC1)OCCO2,?
COc1cc2nc(CN3CC=C(c4ccccc4)CC3)[nH]c(=O)c2cc1OC,-20%
CNC(=O)OCC[N+](C)(C)C,2%
COc1cc2occc2c2oc(=O)ccc12,-9%
O=C(Nc1ccccc1)N1CCC2(CC1)CCN(C(=O)Oc1ccccc1)CC2,3%
COC(C)C(O)(C(=O)OC1=CCN2CC[C@H](O)[C@H]12)C(C)C (some centres undefined),6%
C[C@]12CCC(=O)C=C1CCC1C2CC[C@@]2(C)C1CC[C@@]2(O)CC#N (some centres undefined),3%
NCC(O)c1ccc(O)cc1 (centres undefined),5%&3%&5%
Oc1ccc2[nH]cc(CCCCN3CC=C(c4ccccc4)CC3)c2c1,5%
CCc1nc2ccccc2c(=O)n1-c1cccc(OC)c1,-4%
CC(=O)NC1CC2CCCC(C1)N2 (centres undefined),0%
CCC[CH2][Sn]([Cl])([Cl])[Cl],-7%
CC(C)CCCC1(C)C=Cc2c(O)c3c(c(CCC(C)C)c2O1)OC12C(CC4CC1C(C)(C)OC2(CCC(C)C(=O)O)C4O)C3=O (centres undefined),?
CCN(CC)C(=O)c1ccc(NC(=O)c2cc(-n3cnnc3)ccc2Cl)cc1,4%
Cc1ccccc1[N+](=O)[O-],-3%
CCn1c(=O)cc(OCC(=O)N2CCC3(CC2)OCCO3)c2ccccc21,-3%

# Exported with tabs: entries from further up
compound	HSD17B inhib
CCS(=O)(=O)N1CCC(C(=O)N2CCC3(CC2)OCCO3)CC1	7%
O=C(c1cc2c(s1)-c1ccccc1OC2)N1CCC2(CC1)OCCO2	32µM*
OC(c1ccccc1)(c1ccccc1)C1CCNCC1	-2%[25.6 µM]
CN1C(=O)c2ccccc2Sc2ccc(C(=O)N3CCC4(CC3)OCCO4)cc21	11%
Cc1cccc(C(=O)O)c1O	25µM*
O=C(NCc1ccccn1)c1ccccc1Cl	6%
O=C(CNS(=O)(=O)c1cccs1)N1CCC2(CC1)OCCO2	12%
COc1ccc(CC[n+]2cc(/N=C(\C)[O-])on2)cc1OC	12%
O=C(c1ccc2nc(-c3ccco3)c(-c3ccco3)nc2c1)N1CCC2(CC1)OCCO2	?
COc1cc2nc(CN3CC=C(c4ccccc4)CC3)[nH]c(=O)c2cc1OC	-20%
CNC(=O)OCC[N+](C)(C)C	2%
COc1cc2occc2c2oc(=O)ccc12	-9%
O=C(Nc1ccccc1)N1CCC2(CC1)CCN(C(=O)Oc1ccccc1)CC2	3%
COC(C)C(O)(C(=O)OC1=CCN2CC[C@H](O)[C@H]12)C(C)C (some centres undefined)	6%
C[C@]12CCC(=O)C=C1CCC1C2CC[C@@]2(C)C1CC[C@@]2(O)CC#N (some centres undefined)	3%
NCC(O)c1ccc(O)cc1 (centres undefined)	5%&3%&5%
Oc1ccc2[nH]cc(CCCCN3CC=C(c4ccccc4)CC3)c2c1	5%
CCc1nc2ccccc2c(=O)n1-c1cccc(OC)c1	-4%
CC(=O)NC1CC2CCCC(C1)N2 (centres undefined)	0%
CCC[CH2][Sn]([Cl])([Cl])[Cl]	-7%
CC(C)CCCC1(C)C=Cc2c(O)c3c(c(CCC(C)C)c2O1)OC12C(CC4CC1C(C)(C)OC2(CCC(C)C(=O)O)C4O)C3=O (centres undefined)	?
CCN(CC)C(=O)c1ccc(NC(=O)c2cc(-n3cnnc3)ccc2Cl)cc1	4%
Cc1ccccc1[N+](=O)[O-]	-3%

# Not all compounds are listed. The share of hits here may be higher or lower than overall.
